# Screening data deposited in PubChem by several laboratories.
# RecA intein inh = blocks M. tuberculosis RecA intein splicing | inhibition, %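 (about 9 µM by stock and volumes)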 | 290,000 compounds, 0.75% hits | P9WHJ3 | AID 2221 | cell-free RecA intein splicing, fluorescence; in the data active = inhibition above about 30%; inconclusive = no clear call, values can overlap the other calls;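 also: 0% = vehicle wells and 100% = reference inhibitor control wells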
# Target sequence (P9WHJ3 whole entry, looked up): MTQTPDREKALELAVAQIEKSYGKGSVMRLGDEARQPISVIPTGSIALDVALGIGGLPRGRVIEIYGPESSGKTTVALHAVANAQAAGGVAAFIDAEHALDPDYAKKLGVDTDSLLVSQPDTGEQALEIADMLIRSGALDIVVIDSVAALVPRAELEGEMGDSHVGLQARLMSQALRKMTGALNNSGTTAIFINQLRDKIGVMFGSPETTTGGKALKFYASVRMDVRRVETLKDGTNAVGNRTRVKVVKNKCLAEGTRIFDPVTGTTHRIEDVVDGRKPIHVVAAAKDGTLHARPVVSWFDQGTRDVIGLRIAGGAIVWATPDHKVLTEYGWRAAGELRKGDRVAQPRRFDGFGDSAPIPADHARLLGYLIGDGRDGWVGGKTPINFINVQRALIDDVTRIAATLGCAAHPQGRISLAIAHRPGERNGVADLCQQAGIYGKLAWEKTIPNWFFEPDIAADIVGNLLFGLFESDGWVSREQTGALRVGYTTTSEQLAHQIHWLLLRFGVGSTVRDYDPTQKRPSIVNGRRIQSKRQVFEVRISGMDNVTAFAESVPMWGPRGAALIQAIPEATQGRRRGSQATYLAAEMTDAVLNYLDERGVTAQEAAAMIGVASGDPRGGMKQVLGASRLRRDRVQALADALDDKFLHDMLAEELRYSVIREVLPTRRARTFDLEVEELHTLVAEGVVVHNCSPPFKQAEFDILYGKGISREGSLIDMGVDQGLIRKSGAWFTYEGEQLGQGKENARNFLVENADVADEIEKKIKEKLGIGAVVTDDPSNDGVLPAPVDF
# Mtb bLac sens = beta-lactam sensitization of Mtb H37Rv. M. tuberculosis H37Rv growth with meropenem, percent inhibition; hits of this screen are not shown here. inhibition, % at 25 µM. 330,000 compounds, 0.27% hits. AID 434955;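 active = about 74% or more and at least 40 points above the plate without the antibiotic, then above 30% in a dose series; inconclusive = first-round hits that could not be retested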;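 also: growth measured after seven days incubation then overnight dye step; 0% = bacteria only wells and 100% = bacteria with antibiotic; twin plates without the antibiotic show which effects depend on it; some results filed as inactive read as strong as hits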
# Mtb growth = M. tuberculosis H37Rv growth inhibitors, H37Rv strain (AID 1626); M. tuberculosis H37Rv growth inhibition; higher % means a stronger effect; one-dose inhibition, % at 10 µM; IC50 in µM for titrated hits; 220,000 compounds, 0.95% hits;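 active = confirmed in a dose series; inconclusive = inhibition above 80% but not taken into the dose series; inactive = below 80% or under 30% at every dose of the series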;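 also: bacteria incubated seven days before Alamar blue readout; 0% = bacteria only wells and 100% = bacteria with antibiotic wells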
# Arbovirus inh = arbovirus infection inhibition | arbovirus infection cell-based antiviral screen | inhibition, % at 10 µM | 200,000 compounds, 0.37% hits;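 active = inhibition from about 30%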;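 also: bluetongue infection of BSR cells; cell survival read as ATP light after 72 h; 0% = infected wells without compound and 100% = uninfected wells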
# YopH PTP inh = inhibitors of Yersinia enterocolitica YopH tyrosine phosphatase; inhibition, %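 (about 10 µM by stock and volumes)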; AID 898; fluorescence Ex485/Em525; 140,000 compounds, 0.16% hits;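 active = inhibition of 50% or more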;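 also: controls were vehicle for no effect and minimum signal wells for full effect; inactives centre near -20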
# Arbovirus inh repeat = second read-out of Arbovirus inh, no call of its own (marks repeat the call); inhibition, %; measured here: 10K subset replicate screen; many hits read low in the repeat;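 first of two repeat runs on a subset; 0% = infected and 100% = uninfected wells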
# Active calls of the source: *; ? = inconclusive; . = not tested or not shown. These rows are one share of the data (hit frequency here may not be typical).
# The first six compounds, ahead of the listing:
SMILES,RecA intein inh,Mtb bLac sens,Mtb growth,Arbovirus inh,YopH PTP inh,others
Cn1c(N2CCN(C(=O)NCc3ccccc3)CC2)nc2ccccc21,-0.5,-7,-3%,-6,-42,
CCOC(=O)C1(S(=O)(=O)c2ccc(Cl)cc2)CCN(Cc2ccc(Cl)cc2)CC1,8.9,94,-3%,-2,-18,
C/C(=N\NC(=O)c1cccc(N/N=C(\C)c2cc(O)ccc2O)c1)c1cc(O)ccc1O,24,-3,-3%,-12,.,
CCOC(=O)N1CCN(C(=O)c2cn(C)c3ccc(S(=O)(=O)N4CCCC4)cc3c2=O)CC1,-2.3,-1,3%,8,-27,
COC(=O)c1c(CCl)noc1C(=O)NCC1CCCO1 (stereo not drawn),.,98,-8%,3,-25,
COc1cnc(-c2cccc(C(F)(F)F)c2)[nH]c1=O,0.5,-14,4%,9,.,

# The list itself, previewed entries included:
SMILES,RecA intein inh,Mtb bLac sens,Mtb growth,Arbovirus inh,YopH PTP inh,others
Cn1c(N2CCN(C(=O)NCc3ccccc3)CC2)nc2ccccc21,-0.5,-7,-3%,-6,-42,
CCOC(=O)C1(S(=O)(=O)c2ccc(Cl)cc2)CCN(Cc2ccc(Cl)cc2)CC1,8.9,94,-3%,-2,-18,
C/C(=N\NC(=O)c1cccc(N/N=C(\C)c2cc(O)ccc2O)c1)c1cc(O)ccc1O,24,-3,-3%,-12,.,
CCOC(=O)N1CCN(C(=O)c2cn(C)c3ccc(S(=O)(=O)N4CCCC4)cc3c2=O)CC1,-2.3,-1,3%,8,-27,
COC(=O)c1c(CCl)noc1C(=O)NCC1CCCO1 (stereo not drawn),.,98,-8%,3,-25,
COc1cnc(-c2cccc(C(F)(F)F)c2)[nH]c1=O,0.5,-14,4%,9,.,
CCC(=O)NS(=O)(=O)c1cccnc1Nc1ccccc1Cl,1.3,-15,.,13,-33,
Cc1cccc(C)c1NC(=O)CN1C(=O)NC(C)(CCc2ccccc2)C1=O (stereo not drawn),1.1,-1,1%,10,.,
N#CCSc1nc2c(c(C3CC=CCC3)c1C#N)CCC2 (stereo not drawn),0.9,97,-4%,-14,-1,
Cc1cc(NC(=O)NCc2ccccc2)c(=O)n(Cc2ccccc2F)c1,-1.0,-5,.,.,.,
Cc1ccc(-c2csc(NC(=O)Cc3ccc(F)cc3)n2)o1,3.3,46,-4%,-8,.,
CC(=O)c1cccc(Nc2ccc(-c3ccccc3F)nn2)c1,5.6,-1,8%,14,.,
CC(C)OCc1c(C(=O)OC/C(O)=C(\C#N)c2nc3ccccc3[nH]2)oc2ccccc12,11,-1,-1%,-7,.,
Cc1cc(C)c(O)c(-c2cc(C(=O)NCc3ccccc3)[nH]n2)c1,-1.9,93,7%,9,-12,
CCOC(=O)CCCOC(=O)c1ccc(S(=O)(=O)N(C)C)cc1,-0.3,1,-10%,-2,-11,Arbovirus inh repeat=4
CC(/C=C/c1ccccc1)=N\NC(=O)c1ccc2c(c1)OCCO2,-0.8,-1,51%,-4,-12,
CCO[C@@H]1OC(C(=O)NCc2nc3ccccc3[nH]2)=C[C@H](C(C)(C)C)[C@H]1CCCO,1.7,-2,-3%,.,.,
CCC(=NCCc1c(C)[nH]c2ccc(C)cc12)C1=C(O)CC(c2ccccc2)CC1=O (stereo not drawn),14,-2,10%,-6,-9,
O=C1NC(c2ccc(-c3ccccc3[N+](=O)[O-])o2)C(C(=O)c2ccccc2)C(O)(C(F)(F)F)N1 (stereo not drawn),1.9,8,-3%,20,-11,
Cc1ccc(SCC(=O)OCC(=O)N(C)CC(=O)Nc2ccccc2Cl)cc1C,0.3,-4,.,.,.,
CCC(=O)N1CCc2cc(S(=O)(=O)CCC(=O)NCc3ccco3)ccc21,1.1,-6,-7%,0,.,
COc1ccc(NC(=O)C2(N(CC(C)C)C(=O)Cn3nnnc3N)CCCCC2)cc1,-1.0,-10,.,5,-40,
Cc1nn(-c2ccccc2)c(C)c1C(=O)NNC(=O)C(F)(F)F,1.1,13,-8%,.,.,
CCc1nn(C(CC)C(=O)NCCCN2CC(C)CC(C)C2)c(=O)c2cc3oc(C)cc3n12 (stereo not drawn),1.9,?,.,.,.,
O=C(NC1CCCC1)C(=O)N(Cc1cccnc1)C(C(=O)NCC1CCCO1)c1ccco1 (stereo not drawn),0.2,-7,-6%,6,.,
# Next part.
SMILES,RecA intein inh,Mtb bLac sens,Mtb growth,Arbovirus inh,YopH PTP inh,others
CCN(CC)c1ccc(N)cc1S(=O)(=O)Nc1ccccc1OC,-3.2,-6,-2%,.,.,
CCCCc1cc(=O)oc2cc(C)cc(OCC(=O)N[C@@H](CSCc3ccccc3)C(=O)O)c12,-5.4,0,.,.,.,
Cc1cc(NCc2ccccn2)n2ncc(-c3ccccc3)c2n1,4.4,100,4.8µM*,.,.,
CCN1C(=O)CS/C1=C(\C#N)S(=O)(=O)c1ccccc1,0.3,-3,-8%,4,-15,
COC(=O)c1ccc(NC(=O)CSc2nnc(C)n2-c2ccccc2)cc1,-1.6,-8,-11%,1,49,
CC(NC(=O)c1ccc(Br)s1)c1ccncc1 (stereo not drawn),2.1,-13,0%,7,.,
NC(=O)c1ccsc1NC(=O)CSc1nnc2ccccn12,.,-7,0%,7,.,
O=c1[nH]c(Sc2ccc([N+](=O)[O-])cc2[N+](=O)[O-])nc2ccccc12,34*,99,.,.,.,
O=C(CCOc1ccccc1)Nc1ccnn1C1CCN(C(=O)CCC(F)(F)F)CC1,-1.8,2,.,.,.,
Cc1ccc(-c2nnn(CC(=O)NC3CCCc4ccccc43)n2)cc1 (stereo not drawn),-1.3,4,-1%,-16,-102,
O=C(Nc1ccc2c(c1)OCO2)C1CCCN(S(=O)(=O)c2cccs2)C1 (stereo not drawn),1.2,0,2%,-21,-44,
Cc1ccc(-c2nc3ccccc3[nH]2)cc1NC(=O)/C=C/c1ccco1,-0.5,32,-4%,-8,-37,
CC1=CC(C)(C)N(C(=O)CSc2nnc(-c3ccc(C)cc3)o2)c2ccc(C)cc21,11,-3,6%,-15,4,
CC#CCN1c2ccccc2[C@]23C[C@@H](C(=O)OC)N(C(=O)NC4CCCCC4)C2=NC(C(=O)OC)=C(C(=O)OC)[C@H]13,4.4,2,-6%,.,.,
CCOc1ccc(-n2c(O)c(N=Nc3ccc([N+](=O)[O-])cc3)c(=O)[nH]c2=O)cc1,26,-1,23%,-15,.,
CCn1c2ccccc2c2cc(NC(=O)CSc3nnc(-c4cccc(OC)c4)n3N)ccc21,-1.2,3,-2%,-5,-33,
Nc1cc2c3c(cccc3c1)C(=O)N(CCN1CCCC1)C2=O,-13,5,19%,.,.,
Cc1cc(Cl)ccc1OCc1cn2cccnc2n1,0.1,-2,3%,6,.,
CCCc1cc(=O)[nH]c(SCC(=O)N2CCN(S(=O)(=O)c3ccc(C)cc3C)CC2)n1,2.1,6,-2%,4,-24,
COc1cc(-n2c(C)nc3cccnc32)c(Cl)cc1C(=O)O,-2.5,5,.,.,.,
CCOC(=O)c1ccc(-n2cncn2)nc1,-0.9,-8,-7%,5,-9,
CSc1ccccc1NC(=O)CN(C)C(C)C(=O)Nc1ccc(C#N)cc1 (stereo not drawn),4.1,-6,-5%,24,.,
Cc1sc2nc(CSCC(=O)Nc3ccccc3C#N)[nH]c(=O)c2c1C,-1.1,?,1%,14,-17,
Cc1ccc2c(c1)N(CCCC(=O)NCc1cccnc1)C(=O)CO2,0.5,3,.,1,-22,Arbovirus inh repeat=-1
O=[N+]([O-])c1ccc(Cl)cc1N/N=C/c1ccncc1,1.1,0,.,.,.,
# New compounds follow.
SMILES,RecA intein inh,Mtb bLac sens,Mtb growth,Arbovirus inh,YopH PTP inh,others
COC(=O)N1CCc2c(sc(NC(=O)C3=COCCO3)c2C#N)C1,1.0,-7,.,.,.,
NS(=O)(=O)c1ccc(CCNCC#Cc2ccccc2)cc1,-1.4,-1,.,.,.,
CC(C)Cn1c(=O)c(C(=O)N/N=C/c2cccc(F)c2)c(O)c2ccccc21,-2.0,100,?,7,-37,
COc1ccc(N2CCN(Cc3nc4ccccc4n3C)CC2)cc1,0.9,5,-3%,9,-30,
COC(=O)C1=C(c2ccc(S(C)(=O)=O)cc2)C[C@@H]2CC[C@H]1N2C(=O)N1CCOCC1,-1.8,-6,-9%,.,.,
N#Cc1cc2c(nc1SCC(=O)Nc1cc(Cl)ccc1Cl)C1CCN2CC1,-2.3,-9,14%,-35,-5,
CCNS(=O)(=O)c1ccc(NC(=O)c2ccc(Cn3cc(Br)cn3)o2)cc1,0.5,-4,-8%,-8,-18,
Cc1[nH]c(=O)[nH]c(=O)c1S(=O)(=O)N1CCN(c2ccccc2F)CC1,-1.0,5,-4%,-9,-31,
COC(=O)c1ccccc1NC(=O)c1ccc2c(c1)C(=O)N(Cc1ccco1)C2=O,0.9,4,-6%,.,34,
c1cc(OCCCN2CCCCC2)ccc1CN1CCCCC1,1.9,-5,.,.,.,
Nc1ccc(N)c(C(=O)O)c1,57*,-3,.,.,.,
CCSC1=C(C#N)C2(CCCC2)C(C#N)=C(N)N1,4.9,-9,2%,-13,-1,
O=S(=O)(c1ccccc1)N1CCN(c2cc(-c3ccccc3)nc3ncnn23)CC1,-0.1,5,-3%,1,9,
CC1CCN(C(=O)CSc2nnc(CN3CCOCC3)n2-c2ccccc2)CC1,-6.0,-5,-11%,-1,-37,
Cc1ccc2cc(CCNC(=O)C(C)(C)C)c(=O)[nH]c2c1,-0.6,-5,4%,0,25,Arbovirus inh repeat=5
O=C(NC1CCCCC1)N1CCC(c2nc(-c3ccc(S(=O)(=O)N4CCCC4)cc3)no2)CC1,0.5,-6,0%,-12,-39,
O=C(CCCC(=O)N(CC(=O)NC1CCCC1)c1cccc(F)c1)Nc1ccccn1,-1.4,-2,.,.,.,
CCO[C@@H]1OC(C(=O)N2CCN(C)CC2)=C[C@H](c2ccc(C(F)(F)F)cc2)[C@H]1CCCO,-0.1,-6,-2%,2,.,
COc1ccc(NC(=S)Nc2cccc(Cl)c2Cl)cc1OC,1.1,-3,-8%,5,.,
Cc1cc(NC(=O)Cn2c(=O)n(CCCCC(=O)NC3CCN(Cc4ccccc4)CC3)c(=O)c3ccccc32)n[nH]1,-0.4,1,-10%,-6,.,
COc1ccc(N2CCN(C(=O)c3c(C)nn(-c4ccccc4)c3C)CC2)cc1,-0.7,-1,3%,3,-11,
COc1ccc(NC(=O)CSCc2cc(=O)n3nc(C4CC4)sc3n2)cc1,0.5,1,.,.,.,
O=S(=O)(c1ccc(F)cc1)N1CCN(C(=S)NC2CCCC2)CC1,0.0,2,3%,8,-16,
CS(=O)(=O)n1nc(OC(=O)c2cccs2)cc1N,3.2,-4,8%,2,.,
CCCCOc1ccc(C(=O)NCCc2cccs2)cc1,-1.0,4,7%,1,.,
# (more compounds)
SMILES,RecA intein inh,Mtb bLac sens,Mtb growth,Arbovirus inh,YopH PTP inh,others
COC(=O)c1scc2c(Oc3ccccc3)cc(C(F)(F)F)nc12,-2.9,20,-3%,.,.,
COc1cc(NS(=O)(=O)c2ccc3ccccc3c2)c2ncccc2c1,1.9,2,.,.,.,
O=C(CN(Cc1ccco1)C(=O)CNS(=O)(=O)c1ccccc1)NCc1ccc(F)cc1,-1.0,0,2%,-1,-16,
CCOc1ccc(N(C(=O)C2CCCO2)C2C=CS(=O)(=O)C2)cc1 (stereo not drawn),-2.4,0,1%,-6,.,
COc1ccc(CSCC(=O)N/N=C/c2ccc(OCC(=O)N3CCCCC3)cc2)cc1,-0.9,6,-6%,-2,-3,
COc1ccc(CNC(=O)CC2C(=O)NCCN2C2Cc3ccccc3C2)cc1 (stereo not drawn),-2.9,-27,.,.,.,
OCCn1c(-c2ccccc2)csc1=Nc1ccccc1,8.6,7,3%,-30,-8,
COc1ccc(NC(=O)Nc2ccc3oc(C)nc3c2)cc1,-0.3,-7,6%,7,.,
O=C(Nc1c2c(nn1-c1ccccc1)CS(=O)(=O)C2)c1ccco1,3.9,-14,.,.,.,
Cc1ccc(C(=O)Nc2ccc3nc(C)sc3c2)s1,-1.5,87,81%,-13,-8,
CC(C)(C)C(=O)Nc1ccccc1C(=O)NCCC(=O)Nc1ccccc1,1.0,-7,.,.,.,
Cn1cccc1C(=O)Nc1nccs1,-1.7,-7,-7%,7,-37,
CCOc1ccc(NC(=O)c2cnsn2)cc1,.,92,3%,-2,-14,
COc1cccc(/C=C2\SC(=N)N(c3ccc(F)cc3)C2=O)c1,-0.6,-1,-1%,-6,.,
O=C(NCCOc1ccc(Cl)cc1)C1CC(=O)N(c2ccc(F)cc2)C1 (stereo not drawn),-1.7,-3,-1%,10,8,
CC(/C=N/N1C(=O)CSC1=S)=C\c1ccccc1,2.6,-2,-4%,-2,.,
CCOC(=O)c1cn(CC)c2ccc(Br)cc2c1=O,1.1,-3,0%,-9,-13,
Cn1c(CN2CCCC2)nc2cc(NC(=O)c3cccs3)ccc21,5.4,7,9%,-7,31,
Cc1ccc(CC(=O)Nc2nc3ccccc3[nH]2)cc1C,2.7,.,-5%,0,12,
